Bioassay records: PubChem BioAssay, Johns Hopkins Ion Channel Center
KCNQ2 pot – enhances the rat KCNQ2 potassium channel; O88943; CHO-K1 KCNQ2, FluxOR thallium flux fluorescence; stronger effect = higher value; B-score at 10 µM; hit rate 0.54% among 310,000;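 active = fluorescence ratio B-score at least 3 SD of library B-scores, with initial fluorescence B-score within 3 SD, cut at about 5.3 in these data; same plate scores as AID 2156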;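 note: B-score of peak minus minimum over baseline fluorescence ratio after K+ and Tl+ stimulus; positive B-score means potentiation of KCNQ2 with more thallium influx and brighter signal; only the inactives scoring about 0 or higher are listed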
Target sequence (O88943 whole entry, looked up): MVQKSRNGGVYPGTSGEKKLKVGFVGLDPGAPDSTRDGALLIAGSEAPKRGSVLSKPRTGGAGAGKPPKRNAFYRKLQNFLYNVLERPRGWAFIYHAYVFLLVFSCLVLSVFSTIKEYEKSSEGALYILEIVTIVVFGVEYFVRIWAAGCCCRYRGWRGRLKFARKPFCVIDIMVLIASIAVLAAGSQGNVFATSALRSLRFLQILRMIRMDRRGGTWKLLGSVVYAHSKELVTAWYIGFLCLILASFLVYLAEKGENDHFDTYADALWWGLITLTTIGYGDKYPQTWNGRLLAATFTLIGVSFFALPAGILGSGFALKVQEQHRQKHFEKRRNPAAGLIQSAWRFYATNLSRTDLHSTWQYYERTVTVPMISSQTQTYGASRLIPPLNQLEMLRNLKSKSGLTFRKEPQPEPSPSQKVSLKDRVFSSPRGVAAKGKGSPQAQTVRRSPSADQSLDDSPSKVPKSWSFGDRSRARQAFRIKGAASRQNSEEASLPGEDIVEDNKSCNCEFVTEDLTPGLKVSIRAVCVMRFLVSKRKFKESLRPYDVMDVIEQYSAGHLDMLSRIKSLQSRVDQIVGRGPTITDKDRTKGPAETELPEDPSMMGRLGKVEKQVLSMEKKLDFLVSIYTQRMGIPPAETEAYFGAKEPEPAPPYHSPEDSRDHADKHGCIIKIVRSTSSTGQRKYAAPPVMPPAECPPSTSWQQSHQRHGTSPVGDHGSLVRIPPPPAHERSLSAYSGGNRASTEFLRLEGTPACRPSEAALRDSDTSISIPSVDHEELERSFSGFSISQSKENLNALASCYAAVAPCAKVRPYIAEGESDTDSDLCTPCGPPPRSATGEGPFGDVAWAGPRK
KCNQ2 pot baseline – recorded beside KCNQ2 pot, whose call it bears; B-score; compound at 10 µM; measured here: initial fluorescence intensity artifact check;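 brightness before thallium and not channel activity; 0 = typical well and far values either way flag optical interference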
* marks the source's active call; other numbers are inactive results. This is a subset; count on the stated rates, not on these rows.

SMILES	KCNQ2 pot	KCNQ2 pot baseline
CC(=O)c1cccc(CN2CCCC(CCC(=O)NCc3ccc(C)o3)C2)c1 (stereo not given)	0.47	0.21
Cc1cc(SCc2cc(=O)n3ccsc3n2)nc2ccccc12	1.5	-2.1
N#CCN1CCC2(O)CCCCC2C1c1ccc2c(c1)OCO2 (stereo not given)	1.3	-1.5
O=S(=O)(c1cccc2nsnc12)N1CCN(Cc2ccccc2)CC1	1.2	-0.77
CCc1occc(=O)c1Oc1cc(NN2CCCCC2)c([N+](=O)[O-])cc1[N+](=O)[O-]	0.02	-0.99
Cc1nn(C)c(C(=O)N/N=C/c2ccccc2)c1[N+](=O)[O-]	0.71	0.04
CNC(=O)NC1CCCc2ccccc21 (stereo not given)	0.11	0.2
Cc1ccc(CNC(=O)C2CCC(=O)N2Cc2ccc(F)cc2)cc1 (stereo not given)	1.5	0.01
Cc1onc(-c2ccccc2)c1CNS(=O)(=O)c1cccc(Cl)c1	0.47	-3.5
CCOC(=O)N/N=C\c1ccccc1OC/C=C/c1ccccc1	0.01	1.1
CCOc1ccc(OCCCCNC(C)(C)C)cc1	1.2	0.02
CSc1ccccc1C(=O)Nc1ccccc1C(=O)NC(C)C	0.19	-2
O=C(CSc1nc2ccccc2o1)Nc1nc(-c2ccccc2)c(-c2ccccc2)s1	0.09	1.3
O=C(N1CCN(c2ncccn2)CC1)C12CC3CC(CC(C3)C1)C2	0.58	-0.42
CCCCNC(=S)Nc1ccc(OC)nc1	0.05	0.31
O=C(CCc1c[nH]c2ccccc12)NCC(=O)Nc1ccc(F)c(F)c1F	1.1	-0.67
CC(N=Cc1cc([N+](=O)[O-])ccc1O)c1ccccc1 (stereo not given)	1.4	-1.6
Cc1ccc(C2C(C(N)=S)=C(N)OC3=C2C(=O)CC(C)(C)C3)cc1 (stereo not given)	1	-1.4
Cc1[nH]nc2c1C1(CCOCC1)C(C#N)=C(N)O2	0.08	-1.1
C=C(C)Cn1c(CCCNC(=O)CCC)nc2ccccc21	0.87	1.8

Record cards, as listed above. Order of values: KCNQ2 pot	KCNQ2 pot baseline
O=C(CSc1nc2ccccc2o1)Nc1nc(-c2ccccc2)c(-c2ccccc2)s1 as listed: 0.09	1.3
CCCCNC(=S)Nc1ccc(OC)nc1 as listed: 0.05	0.31
CC(N=Cc1cc([N+](=O)[O-])ccc1O)c1ccccc1 (stereo not given) as listed: 1.4	-1.6
Cc1ccc(C2C(C(N)=S)=C(N)OC3=C2C(=O)CC(C)(C)C3)cc1 (stereo not given) as listed: 1	-1.4
CCOc1ccc(OCCCCNC(C)(C)C)cc1 as listed: 1.2	0.02

(cont.)
SMILES	KCNQ2 pot	KCNQ2 pot baseline
COc1ccc2cnnc(SCC(=O)Nc3ccccc3)c2c1OC	1.3	-0.14
C=CCn1c(=O)n(CCC#N)c(=O)n(CCC#N)c1=O	0.99	-0.62
O=C(NCC1CCNCC1)c1ccncc1	0.48	-0.59
CC1=CC(C)(C)N(C(=O)CSc2nncn2C)c2ccccc21	1.1	-0.33
CCCCOCCCNC(=O)c1ccc(OC)cc1	0.28	-0.45
Cn1c(=O)oc2cc(S(=O)(=O)N3CCCc4ccccc43)ccc21	0.72	1.2
CCN(CC(=O)Nc1c(F)cccc1F)C(=O)/C=C/c1c(C)nn(-c2ccc(F)cc2)c1C	0.68	-0.08
COC(=O)c1ccc(NC2=C(Cl)C(=O)OC2OC(=O)c2ccccc2)cc1 (stereo not given)	0.16	-0.11
COc1cc(C(=O)Nc2ccc(S(=O)(=O)Nc3cc(C)on3)cc2)cc(OC)c1OC	0.62	0.78
N#C/C(=C\c1ccc([N+](=O)[O-])o1)C(=O)Nc1ccc(F)cc1	0.42	-1.3
Cc1cc(SCc2cccc(C(F)(F)F)c2)nc(=O)[nH]1	1.9	1.3
O=C(Nc1nc(-c2nc3ccccc3s2)cs1)c1ccc(S(=O)(=O)N2CCOCC2)cc1	0.24	-2.5
Cc1ccnc(NS(=O)(=O)c2ccc(NS(=O)(=O)c3cc(Cl)ccc3Cl)cc2)n1	0.72	0.58
CCOC(=O)C1CCN(C(=O)c2cc3cc(F)ccc3[nH]2)CC1	1.5	-0.07
Cc1ccc(C(=O)N2CCN(Cc3ccc4c(c3)OCO4)CC2)o1	0.38	0.26
O=C(CCOc1ccc(F)cc1)Nc1nccs1	0.42	-2.9
O=C1CCCc2c1[nH]c1ccc(CN3CCCCC3)cc21	0.75	-0.45
CCCCc1ccc(NC(=O)c2c(C)noc2C)cc1	1.7	0.63
CCOc1ccccc1NC(=O)C1CCCN(S(=O)(=O)c2ccc(-n3cnnn3)cc2)C1 (stereo not given)	0.1	-2.6
COc1ccc(Cc2nnc(SCC(=O)N3CCCCC3)o2)cc1	0.02	0.98
Cc1cc(C)nc(/N=C(\N)Nc2ccc3c(c2)OCCO3)n1	0.63	-0.04
O=[N+]([O-])c1ccc(S(=O)(=O)N2CCN(Cc3ccco3)CC2)cc1	1.3	-1.1
CC1(OC(=O)CCc2ccccc2)C(=O)C=C2C=C(C3CC3)OC=C2C1=O (stereo not given)	0.31	-0.75
O=C(NCc1ccccn1)C(=O)Nc1ccccc1	0.64	-0.28
CCN(CC)Cc1c(O)c(Cl)cc2c(C)c(C)c(=O)oc12	1.5	-2.5
CC(=O)Nc1ccc(NC(=O)COC(=O)c2n[nH]c3ccccc23)cc1	0.52	0
Cc1cc2cc(CCNC(=O)C3c4ccccc4Oc4ccccc43)c(=O)[nH]c2cc1C	0.3	1.2
COC(=O)C(C)Sc1ccc2nnc(CCNS(=O)(=O)c3ccccc3)n2n1 (stereo not given)	1.5	-0.77
Cc1cccc(NC(=O)COC(=O)CCc2ccc(S(=O)(=O)N3CCOCC3)cc2)c1C	0.13	1.6
O=c1[nH]c(=S)[nH]cc1Oc1ccc(Cl)cc1Cl	1.4	-1.2
Cc1ccc(C(=O)Nc2ccc(C(=O)N3CCCCC3)cc2)cc1	1.2	-0.22
COc1ccc(NC(=O)CSc2ccc3nnc(-c4cccnc4)n3n2)cc1	1.1	0.53
CCC1C(=O)n2nc(-c3ccccc3)cc2N=C1C (stereo not given)	0.36	0.59
O=C(Nc1cccc(Br)c1)c1cc(=O)c2ccccc2o1	1	-2
COc1ccc(N2CCN(Cc3nc4sc(C)c(C)c4c(=O)[nH]3)CC2)cc1	1.9	-0.02
Cn1c(SCC(=O)N2CCCCC2)nc2cccnc21	1	-0.42
O=C(CC(Cc1ccccc1)C(=O)O)NCCc1ccc2c(c1)OCO2 (stereo not given)	1.3	0.52
CCN(CC)C(=O)C1CCN(Cc2cn(C)nc2-c2ccc(Oc3ccccc3)cc2)CC1	0.6	-0.85
Cc1cc(C)n(-c2ccn(Cc3ccc(Cl)cc3Cl)c(=O)n2)n1	0.67	0.26
O=c1oc2ccccc2nc1/C=C(\O)c1ccccc1	0.93	-1.6
Cc1ccc(Nc2cc(C)nn2-c2nc(C)cc(C)n2)cc1	2	-1.5
Cc1onc(-c2ccccc2)c1C(=O)NC(=S)NNC(=O)c1ccc(O)cc1O	0.05	0.58
O=C1COc2ccc(S(=O)(=O)N3CCN(c4cccc(C(F)(F)F)c4)CC3)cc2N1	0.02	-1.2
Cc1ccc(S(=O)(=O)N2CCN(C)CC2)cc1C(=O)NC1CCCCC1	0.14	-0.24
Cc1ccsc1/C=N/Nc1nc(Cl)c(Cl)cc1Cl	1.2	0.01
CCc1ccc(NC(=O)/C(C#N)=C/c2cn(CC(=O)O)c3ccccc23)cc1	0.66	-1.6
COc1cc(OC)cc(C(=O)NC(C(=O)NCCN(C)C)C23CC4CC(CC(C4)C2)C3)c1 (stereo not given)	2.3	-0.32
Cn1nc([N+](=O)[O-])nc1Oc1ccccc1	0.11	-0.12
COc1ccc2c(c1OC)C(=O)OC2Nc1nc(-c2cccc([N+](=O)[O-])c2)cs1 (stereo not given)	0.04	1.5
COc1ccccc1NC(=O)Cc1ccsc1	0.27	-0.13

More entries follow:
SMILES	KCNQ2 pot	KCNQ2 pot baseline
Cc1cc(NC(=O)c2cnn3cccnc23)no1	0.67	-0.81
COc1ccc2nc(NC(=O)CN3CCN(C)CC3)sc2c1	0.78	0.65
CC(C)c1ccc(Nc2nc(NCc3ccco3)nc(N3CCOCC3)n2)cc1	1.9	-1
c1ccc(Cn2nnc3c(N4CCCCCC4)ncnc32)cc1	0.01	1
C=CCn1nc2ccccc2c1OC	1.4	-2.3
O=C1NC(=O)C2(CCc3ccccc32)N1 (stereo not given)	0.37	2.7
CCCCNC(=O)c1cn(-c2ccc(OCC)cc2)c(=O)c2cc(OC)c(OC)cc12	1.1	-1
COC(=O)CN(c1ccc2c(c1)OCO2)S(C)(=O)=O	0.07	-0.29
COc1cccc(CN2CCNC(=O)C2CC(=O)N(C)Cc2cnccn2)c1OC (stereo not given)	1.1	0.04
CC(C)Cn1c(-c2ccc(C#N)cc2)nc2c1c(=O)[nH]c(=O)n2CC(C)C	0.68	0.16

3 compounds already listed, ordered by the value under KCNQ2 pot baseline, falling.
SMILES	KCNQ2 pot	KCNQ2 pot baseline
CC(C)Cn1c(-c2ccc(C#N)cc2)nc2c1c(=O)[nH]c(=O)n2CC(C)C	0.68	0.16
COC(=O)CN(c1ccc2c(c1)OCO2)S(C)(=O)=O	0.07	-0.29
CC(C)c1ccc(Nc2nc(NCc3ccco3)nc(N3CCOCC3)n2)cc1	1.9	-1

Continuation:
SMILES	KCNQ2 pot	KCNQ2 pot baseline
CCS(=O)(=O)N1CCN(C(=O)c2cccc3ccccc23)CC1	0.65	0.13
COc1ccccc1N1CCN(C(=O)C(=O)N/N=C/c2ccccc2F)CC1	1.1	-0.08
O=C(COc1cccc(Cl)c1)NCc1ccccc1	0.96	0.69
COc1ccc(NC(=O)c2cc(F)cc(F)c2)cc1Cl	0.02	1.4
O=C1/C(=C/c2coc3ccc(O)cc3c2=O)SC(=S)N1c1ccccc1	0.09	-0.24
O=C(CSc1nnc(-c2cccs2)n1-c1ccccc1)N1CCOCC1	0.88	-0.26
CS(=O)(=O)N(CCc1ccccc1)CC(=O)NCc1ccc2c(c1)OCO2	0.22	-0.76
CCOC(=O)c1cc2c(C(F)(F)F)cc(-c3ccccc3)nc2o1	0.19	0.1
CCC1CCCCN1C(=O)CSc1nc2c(c(=O)n(C)c(=O)n2C)n1C (stereo not given)	1.6	0.67
CC(C)N(C(=O)CN1C(=O)C(=O)c2ccccc21)c1ccccc1	0.7	0.7
Cc1noc(C)c1Cc1c(Cl)cccc1Cl	0.04	-1.9
CN(C(=O)COC(=O)C1CCN(S(=O)(=O)c2cccs2)CC1)C1CCS(=O)(=O)C1 (stereo not given)	2.3	0.01
Cc1cccc(NC(=S)NCc2ccc3c(c2)OCO3)c1	0.23	1.3
CCO[C@H]1OC(C(N)=O)=C[C@@H](C(C)(C)C)[C@@H]1CCCO	0.02	-0.45
Cc1cc2nc(SCC(=O)Nc3ccccc3C(=O)O)[nH]c2cc1C	2.5	-0.02
O=C(Nc1ccc2c(c1)OCCO2)c1ccc(Cl)cc1	1.1	0.37
Cc1ccc(NS(=O)(=O)c2ccc3c(c2)NC(=O)CCS3)c(Cl)c1	1.8	0.35
O=C(NC1=NCCS1)c1ccc([N+](=O)[O-])cc1Cl	1.4	0.11
O=C(O)CN1C(=O)NC2NC(=O)NC21 (stereo not given)	0.17	0.02
CN(C(=S)NC(=O)c1ccc(Cl)cc1)C1CCCCC1	3.3	0.09
O=C(Nn1c(-c2ccc(Cl)cc2)nc2ccccc2c1=O)c1cccnc1Cl	0.3	-1
O=C(NCc1ccc(F)cc1)c1cc2c(s1)CS(=O)(=O)C2	0.43	-0.16
COc1ccc(-n2c(SCC(=O)N3CCOCC3)nnc2C(C)N2CCCCC2)cc1 (stereo not given)	1.5	-0.77
CCN(CC(=O)NCc1ccc(F)cc1)C(=O)CN1CCN(c2ccc(OC)cc2)CC1	0.86	-0.67
COC(=O)[C@@H](NC(=O)c1cc(COc2cncc(Cl)c2)on1)c1ccccc1	0.02	1.1
CCN(c1ccccc1)S(=O)(=O)c1ccc(OC)c(OC)c1	1.9	-0.22
O=C1C2CC=CCC2C(=O)N1c1ccc(OCC(O)Cn2nnc3ccccc32)cc1 (stereo not given)	2.9	0.03
O=C(O)CCSc1nc2ccc(Br)cc2[nH]1	0.03	1.1
COc1ccc2[nH]c(=O)c(CN(CCN(C)C)C(=O)NCc3ccccc3)cc2c1	0.42	-0.88
C[C@H](O)[C@H](O)[C@H]1CNc2nc(N)[nH]c(=O)c2N1	0.04	0.64
CC(=O)Nc1ccc2nc(C)n(Cc3ccc(Cl)cc3)c(=O)c2c1	0.01	0.13
O=C(NCc1ccco1)c1ccc2c(c1)C(=O)N(Cc1ccccc1)C2=O	1.2	-0.31
CC(O)c1ccc(OCCN(C)c2ccccn2)cc1 (stereo not given)	0.62	0.77
COCC(=O)Nc1ncc(S(=O)(=O)c2ccc([N+](=O)[O-])cc2)s1	0.23	0.01
O=C(Nc1ccc(N2CCOCC2)c(S(=O)(=O)Nc2ccc(Cl)cc2)c1)c1cnccn1	0.06	-0.27
COc1ccccc1CCNC(=O)CCCn1nc(C)c2c(C)n(-c3ccc(C)cc3)nc2c1=O	0.03	-0.12
CCOC(=O)c1cnc(SC2CC(=O)N(c3ccccc3)C2=O)nc1N (stereo not given)	0.43	-0.41
CCOc1cccc(-c2nnc(SCC(=O)Nc3cc(C)ccc3OC)n2N)c1	0.21	3.3
CCCc1c(C(=O)N/N=C/c2sccc2C)nnn1-c1nonc1N	0.1	3.7
O=C(CCNS(=O)(=O)c1cccc2nsnc12)NCCC1=CCCCC1	0.07	0.36
CCCNc1nc2c(c(=O)n(C)c(=O)n2C)n1CCc1ccccc1	0.01	2.1
Cc1nc(/N=C(\N)NC(=O)c2ccccc2)nc2ccccc12	0.85	-0.61
N=c1c2c3c(sc2nc2n1CCCCC2)CCCC3	2	-2.3
CN1CCC(=NNC(=O)C(=O)NC2CCCCC2)CC1	0.5	-1.4
